HNF4A DNA FP = change in binding of human HNF4 alpha to DNA; 360,000 compounds, 0.3% hits; HNF4a-FITC DNA binding, fluorescence polarization, 1 h; AID 1224865; activity change, % at 10 µM; in the data active = activity change above about 30%, passing the limit was not always enough;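 note: controls were the assay level and a saturating level of protein; the project sought stronger binding though the title names inhibitors; some compounds called inactive have numbers as strong as hits; positive values seem to mean higher polarization but the record does not say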
Target sequence (P41235 whole entry, looked up): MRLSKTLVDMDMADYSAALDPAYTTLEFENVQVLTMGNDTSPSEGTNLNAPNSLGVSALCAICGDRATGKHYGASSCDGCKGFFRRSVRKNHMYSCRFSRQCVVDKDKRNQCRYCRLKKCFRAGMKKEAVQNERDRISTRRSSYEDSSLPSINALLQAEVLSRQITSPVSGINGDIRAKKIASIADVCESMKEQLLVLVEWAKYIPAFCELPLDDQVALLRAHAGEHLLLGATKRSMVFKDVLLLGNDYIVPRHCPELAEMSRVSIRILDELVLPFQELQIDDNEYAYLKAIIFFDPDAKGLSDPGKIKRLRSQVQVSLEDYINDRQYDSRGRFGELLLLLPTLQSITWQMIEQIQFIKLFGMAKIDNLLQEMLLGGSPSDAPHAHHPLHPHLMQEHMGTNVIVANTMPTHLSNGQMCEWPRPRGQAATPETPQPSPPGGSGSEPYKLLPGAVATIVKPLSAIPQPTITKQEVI
Bfl-1 A1 inh = inhibitors of the anti-apoptotic protein A1, read as caspase activation | 330,000 compounds, 0.066% hits | caspase activation, % (test concentration not listed) | MEF A1-2A-BIM cells, Caspase-Glo 3/7 luminescence, 3 h; percent of clofoctol response, vehicle zero;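 active = over half of replicate activation scores above 10%, or exactly half above 10 with the replicate mean above 10; inconclusive = replicate mean below 10 yet half the replicates above 10; inactive = over half of replicates below 10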;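 note: wells of about 30 µL received 50 nL stock; many hits fall short of the cut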
Beta2AR agonist = human beta-2 adrenergic receptor agonism by FAP. 340,000 compounds, 0.43% hits. Am2.2-beta2AR cells, FAP receptor internalization, flow cytometry; reference of the scale not given here. response, % (no concentration beside the values). P07550;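 active = response above a set limit, near 3 SD of response in nonfluorescent compounds, cut at about 42% in these data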;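 note: stock transfer was 100 nL into about 11 µL; a reference agonist was the positive control; negative values mostly stem from fluorescent compounds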
UCH37 inh = human UCH37 deubiquitinating enzyme inhibition | Q9Y5K5 | purified proteasome/UCH37, Ub-AMC cleavage fluorescence | inhibition, % (concentration not given with the values) | 330,000 compounds, 0.33% hits;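 active = mean of two replicates above 20%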;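 note: 0% = compound-free wells with enzyme and 100% = wells lacking proteasome; stock transfer was 100 nL into about 20 µL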
Target sequence (Q9Y5K5 whole entry, looked up): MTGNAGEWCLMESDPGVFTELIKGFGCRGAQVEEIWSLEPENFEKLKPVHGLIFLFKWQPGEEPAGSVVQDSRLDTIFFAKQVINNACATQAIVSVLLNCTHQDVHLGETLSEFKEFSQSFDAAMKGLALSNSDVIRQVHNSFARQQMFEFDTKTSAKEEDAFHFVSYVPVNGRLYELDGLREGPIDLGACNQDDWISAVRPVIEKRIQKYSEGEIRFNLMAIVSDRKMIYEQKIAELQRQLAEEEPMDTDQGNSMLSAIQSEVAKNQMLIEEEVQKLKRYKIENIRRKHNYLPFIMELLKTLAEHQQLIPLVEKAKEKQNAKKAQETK
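System: Proteasome-associated human UCH37 deubiquitinase; Input: 0.15 nM proteasome in added enzyme buffer; Also added: Ub-AMC substrate from 1 µM stock; Incubation: 30 min compound-proteasome preincubation then 25 min substrate reaction, room temperature; Detection: fluorescence, ex 355 nm, em 460 nm; Read-out: % inhibition of Ub-AMC cleavage fluorescence; Benchmarks: no-proteasome and no-compound wells.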
Vif A3G = inhibitors of Vif binding to APOBEC3G peptide, primary screen, biochemical, TR-FRET, GST-Vif 1-94, biotin-A3G peptide, dose response retest (AID 1117319) | TR-FRET GST-Vif / biotin-A3G peptide binding; higher % means a stronger effect; test concentration not given here; strong numbers were not always called active | inhibition, %; hits with a dose series show IC50 in µM | 260,000 compounds, 0.57% hits;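 active = above the screen mean plus three standard deviations and confirmed in dose response; inconclusive = results disagree or hit not tested in dose response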;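 note: Vif residues 1-94 fused to GST binding biotinylated APOBEC3G peptide 110-148; 0% = full assay without inhibitor and 100% = GST in place of GST-Vif; retest series ran down from 100 µM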
LANA-H2B inh = blocks KSHV LANA binding to histone H2A/H2B. cell-free LANA-H2A/H2B peptide, fluorescence polarization. inhibition, % (test concentration not listed). 320,000 compounds, 0.6% hits; in the data active = inhibition mostly above about 10%, no sharp cut-off; inactive = mostly below about 6.7%;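 note: stock transfer was 7.5 nL into about 10 µL; 0% = median of vehicle wells and 100% = median of positive control wells; one replicate is shown; the record names a cut of 25% in any replicate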
Ecoli growth = inhibitors of Escherichia coli growth; OD600, 23 h; stronger effect = lower value; OD600 absorbance (no concentration beside the values); 330,000 compounds, 0.21% hits; AID 1053175;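 active = OD600 absorbance below the run mean of sample wells minus 3.6 SD, in any replicate, cut at about 0.56 in these data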;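 note: stock transfer was 300 nL into about 60 µL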
Starred values were filed as active, the others as inactive; i = inactive; u = inconclusive; x = not tested or not shown. Not a hit list; any-hit rate near 2.1%.

SMILES	HNF4A DNA FP	Bfl-1 A1 inh	Beta2AR agonist	UCH37 inh	Vif A3G	LANA-H2B inh	Ecoli growth
O=C(COc1ccc(Cl)cc1)NCC(=O)N/N=C/c1cccs1	1.6	0.3	-1	x	-5%	-1.1	x
Cc1nc(NC(=O)c2ccccc2)sc1-c1csc(NCc2ccccc2)n1	3.1	0.3	0	-37	0%	4.0	0.75
Cc1nc2cc(C(=O)OCC(=O)NC(C)C(C)C)ccc2n1-c1ccccc1 (stereo not given)	1.3	1.4	-3	-11	-2%	-1.1	0.7
CSCCC(=O)N(C)CC1CCN(CCc2cccc(C(F)(F)F)c2)CC1	-2.7	-0.1	2	3.3	x	-2.9	0.69
Cc1cc(F)c(F)c(C(=O)N2CCCCC2C)c1Cl (stereo not given)	-1.5	0.4	-2	1.2	8%	-1.7	0.71
CCOC(=O)c1sc(NC(=O)c2ccco2)nc1C	-4.7	-7.3	-7	-12	-5%	-1.9	0.76
COC(=O)C1=C(CS(=O)(=O)c2ccc(OC)c(OC)c2)NC(=O)NC1c1ccc(O)c(OC)c1 (stereo not given)	0.4	1.5	0	-0.9	x	-1.8	0.71
COc1ccccc1[C@@H]1C(c2cccc(C)c2)=NN(c2ccccc2)[C@H]1C(=O)N1CCOC1=O	4.5	0.9	-1	-44	26%	-1.6	x
Cc1cc(C)c(C(=O)N2CCCC(C(=O)c3cc(F)ccc3F)C2)o1 (stereo not given)	-6.5	-0.2	2	0.9	2%	1.6	0.7
COc1ccccc1CN1CCN(Cc2nc(Cc3ccccc3)no2)CC1	-1.7	0.2	-6	1.3	9%	0.0	0.68
CC1CCc2c(nc3ncnn3c2Nc2ccc(OC(F)(F)F)cc2)C1 (stereo not given)	0.3	-0.6	0	5.8	3%	0.1	0.72
CCN(CC)c1ccc(C(=S)NCc2ccccc2)cc1	2.5	-0.7	0	7.9	7%	5.9	0.68
O=C(Nc1ccc(Cl)cc1F)c1ccccc1Br	1.8	-8.4	0	6.1	-7%	-0.4	0.69
CCn1c(=O)c(C(=O)CN2CCc3ccccc32)c(N)n(Cc2ccccc2)c1=O	2.0	0.9	4	-0.7	-76%	-5.1	0.68
CC(=O)NC(CC(=O)OCC(=O)c1ccc(NC(=O)CC(C)C)cc1)c1ccccc1 (stereo not given)	-2.2	0.5	10	1.5	-6%	-1.3	0.65
CCOC(=O)N1CCN(C(=O)c2c(O)c3cccc4c3n(c2=O)CC4)CC1	-3.8	-1.0	-1	0.7	9%	-1.5	0.66
CNC(=O)CSc1nnc(-c2ccncc2)n1Cc1ccccc1	1.9	0.2	-1	-1.0	u	0.4	0.7
CCOc1ccc2nc(SCC3CC3(Cl)Cl)[nH]c2c1 (stereo not given)	0.3	0.0	-13	0.0	2%	0.6	0.63
CCN1CCN(CCNC(=O)c2ccc(/C=C3/Sc4ccccc4N(Cc4ccccc4C)C3=O)cc2)CC1	2.1	x	32	-20	-7%	x	0.62
O=C(Cc1ccccc1)Nc1cccc(C(=O)O)c1O	3.7	0.4	4	-41	-10%	-4.6	0.66
CC(=O)N1CCc2cc3nc(C)cc(C)c3cc21	-0.6	-0.2	1	-182	-2%	1.2	0.69
CC(NC(=O)c1cc(Br)cs1)C1CCCO1 (stereo not given)	-1.6	1.3	4	2.4	x	0.8	0.66
Cc1ccc(S(=O)(=O)NCC(=O)N2CCCC2)cc1	0.0	0.3	1	0.9	30%	1.2	0.71
Cc1cccn2c(=O)c3cc(C(=O)NCc4cccnc4)c(=N)n(CC4CCCO4)c3nc12 (stereo not given)	2.1	1.3	-13	i	x	-9.6	0.69
COc1cc2[nH]c(C(=O)N3CCN(c4ccccc4F)CC3)cc2c(OC)c1OC	2.0	-0.7	4	-0.7	-4%	2.3	0.65

Four of the compounds above, in CSV form:
Molecule,HNF4A DNA FP,Bfl-1 A1 inh,Beta2AR agonist,UCH37 inh,Vif A3G,LANA-H2B inh,Ecoli growth
CNC(=O)CSc1nnc(-c2ccncc2)n1Cc1ccccc1,1.9,0.2,-1,-1.0,u,0.4,0.7
CCOc1ccc2nc(SCC3CC3(Cl)Cl)[nH]c2c1 (stereo not given),0.3,0.0,-13,0.0,2%,0.6,0.63
CCN1CCN(CCNC(=O)c2ccc(/C=C3/Sc4ccccc4N(Cc4ccccc4C)C3=O)cc2)CC1,2.1,x,32,-20,-7%,x,0.62
O=C(Cc1ccccc1)Nc1cccc(C(=O)O)c1O,3.7,0.4,4,-41,-10%,-4.6,0.66

(listing goes on)
SMILES	HNF4A DNA FP	Bfl-1 A1 inh	Beta2AR agonist	UCH37 inh	Vif A3G	LANA-H2B inh	Ecoli growth
O=C(NCc1ccccc1)Nc1cccn(Cc2cccc(F)c2)c1=O	1.1	-0.4	-1	-9.6	x	-3.4	0.71
O=C(NC(=S)NCc1ccccc1)c1ccccc1[N+](=O)[O-]	0.3	-0.7	-10	1.2	7%	8.6	0.65
CN1CCN(c2ccccc2NC(=O)c2ccc(-c3cccc(Cl)c3)o2)CC1	-1.4	-1.3	14	-3.2	x	5.2	0.67
Cc1ccc(/C=N/OC(=O)c2c(C)noc2-c2snnc2C)cc1	0.1	0.3	-2	x	1%	-0.4	x
C=C(C)c1cccc(C(C)(C)NC(=O)N(C)C2CCN(C)CC2)c1	4.6	x	-4	1.3	u	x	0.69
CCN(CC)CCn1c2ccccc2c(=O)c2c(O)ccc(O)c21	-2.6	x	-2	x	27%	x	x
O=C(NCC(c1cccnc1)N1CCOCC1)c1ccc2c(c1)OCO2 (stereo not given)	1.0	0.0	-3	5.5	31%	3.5	0.69
Cc1ccc(S(=O)(=O)n2nc(C)c(S(=O)(=O)N3CCOCC3)c2C)cc1	26	1.2	6	-0.9	x	-3.6	0.69
Cc1ccccc1Nc1nc(N)nc(CSc2nnc(-c3ccccc3)n2C)n1	1.0	0.2	-3	4.6	24%	-2.9	0.72
Cc1ccc(S(=O)(=O)Nc2c3ccccc3nc(=O)n2-c2ccccc2)cc1	4.3	-4.3	-7	-0.5	-5%	3.4	0.71
O=C(Nc1ccccc1)C1=C[C@H](c2ccccc2)C[C@H](OCCCCO)O1	1.6	0.9	-12	5.4	x	2.3	x
COc1cc(C(=O)NCC(=O)OC(C)C(=O)Nc2ncc(Cl)cc2Cl)cc(OC)c1OC (stereo not given)	0.9	-0.6	-5	-1.7	22%	-4.6	0.67
O=C(O)c1ccc(N/N=C/c2c(F)cccc2Cl)cc1	-1.1	-8.2	4	x	x	-0.5	x
Cc1ccc2cc3cc(C(=O)NCCCN4CCCC4=O)oc3nc2c1	-1.4	-1.3	-4	i	x	-13	0.68
CNC(=O)COC(=O)c1ccc([N+](=O)[O-])cc1Cl	3.4	-0.2	-11	3.0	20%	0.4	0.67
Cc1ccc(N(CC(=O)N/N=C/c2ccc(OC3CSC3)cc2)S(=O)(=O)c2ccccc2)c(C)c1	-0.6	0.5	-6	x	x	7.8	x
CC(=O)Nc1cc(C(=O)OC(C(=O)c2ccccc2)c2ccccc2)ccc1C (stereo not given)	0.6	0.1	121*	5.1	-2%	0.2	0.67
COc1ccc(/C=N/NC(=O)c2ccc3c(c2)NC(=O)C(C)(C)O3)cc1OC	0.2	-0.1	3	x	x	1.9	x
CCOP(=O)(OCC)/C(=N/OC(=O)c1ccc(OC)cc1)C(N)=O	1.0	-0.5	13	x	-11%	-1.8	x
COc1cc(/C=N/NC(=O)c2nc3ccccn3c2C)cc(OC)c1O	2.0	-0.4	-3	x	3%	-0.7	x
CSCCC(NC(=O)c1cccc(C)c1)C(=O)O (stereo not given)	1.2	-0.6	-3	6.1	6%	-4.3	0.65
Cc1cccc2c1N(CCOc1ccccc1Cl)C(=O)C2=O	-1.0	1.4	-4	1.4	x	-9.7	0.66
Cc1ccc(C)c(NC(=O)CN(C)C(=O)COc2ncnc3sccc23)c1	4.0	0.1	1	0.1	x	-7.1	0.67
COc1ccc2cc(S(=O)(=O)n3cnc(C)c3)ccc2c1	1.3	2.0	-2	0.7	7%	-3.2	0.67
COC(=O)c1nn(-c2ccccc2)c(Cl)c1/C=N/O	-3.4	-0.5	11	x	0%	2.6	x
Other records follow:
SMILES	HNF4A DNA FP	Bfl-1 A1 inh	Beta2AR agonist	UCH37 inh	Vif A3G	LANA-H2B inh	Ecoli growth
Cc1ccc(-c2nnc(CCC(=O)NCC3C4CC5CC(C4)CC3C5)o2)s1 (stereo not given)	2.5	0.1	-15	1.1	9%	-0.8	0.71
O=C(Cn1cnc2cc([N+](=O)[O-])ccc2c1=O)NCCc1ccc(F)cc1	-0.3	0.1	-8	-5.4	5%	1.4	0.67
CCCc1n(CC(O)COCC2CC=CCC2)c2ccccc2[n+]1C (stereo not given)	1.1	-0.1	2	5.6	8%	7.0	0.69
CCOC(=O)/C=C1\CN(Cc2cc(OC)c(OC)c(OC)c2)S(=O)(=O)c2ccc(C(F)(F)F)cc21	5.9	0.5	-17	3.1	x	-2.9	x
O=C(Nc1ncccc1O)c1ccc(S(=O)(=O)N2CCCCCC2)cc1	2.4	-0.3	-1	3.8	10%	-3.6	0.65
Cc1nnc(NC(=O)CSc2nnc(-c3ccco3)n2C(C)C)s1	-3.0	0.2	4	-0.6	x	-0.5	0.7
Cc1ccc(S(=O)(=O)Nc2ccccc2F)cc1C(=O)OC(C)C(=O)N1CCOCC1 (stereo not given)	1.2	0.8	8	1.3	3%	-3.1	0.6
COC(=O)c1cccnc1NC(=S)NC1CCCCC1	-5.3	0.2	6	0.5	u	-3.6	0.71
CC(C)Nc1nc(Cl)nc(NC2CCCCC2)n1	-0.1	0.6	5	-0.7	x	-2.6	0.73
CCCCCCn1nc(C(=O)N(CCOC)c2c(N)n(CCCC)c(=O)[nH]c2=O)c2ccccc2c1=O	-3.8	0.6	0	0.0	x	18*	0.68
C/C(=N\NS(=O)(=O)c1ccccc1)c1cccc(NC(=O)c2cccc(Cl)c2)c1	-0.4	0.5	2	x	x	0.2	x
COc1ccc2c(c1)CCc1c(C(=O)N3CCCC3)noc1-2	-1.8	0.6	1	2.3	-6%	-2.4	0.66
CC(=O)Nc1ccc(NS(=O)(=O)c2ccc(-c3cnc(C4CC4)o3)cc2)cc1	-1.7	x	1	0.0	x	x	0.71
O=C(COC(=O)/C=C/c1ccccc1[N+](=O)[O-])Nc1ccc(S(=O)(=O)N2CCOCC2)cc1	1.9	-0.6	4	1.4	-1%	-3.2	0.68
Cc1cccc2nc(C(=O)Nc3cc(Cl)ccc3-n3cncn3)cn12	2.7	-0.7	-6	0.3	4%	0.4	0.68
CCOC(=O)c1cc[nH]c1C	-2.2	1.2	-5	-0.5	24%	-3.3	0.7
CCCCOc1ncnc2c1[nH]c1ccc(F)cc12	0.1	-0.6	2	-24	-4%	-0.3	0.7
O=C(COc1ccc([N+](=O)[O-])cc1)NCc1ccncc1	-5.5	0.7	-2	3.2	24%	-3.2	0.72
Cn1c(COc2ccccc2)nnc1SCC(=O)NNC(=O)C1CCCCC1	0.8	2.2	0	3.8	5%	1.6	0.7
CC(=O)NCCn1c(SCC(=O)OCc2ccccc2)nc2ccccc2c1=O	1.5	0.7	-5	0.6	-8%	1.7	0.71
CC(C)C(=O)N(Cc1cc2ccccc2[nH]c1=O)C(C)C	-2.6	1.7	-3	0.5	3%	1.1	0.69
CN1C(=O)N(CC(=O)Nc2nccs2)C(=O)C12CCCCC2	-3.9	0.2	0	1.7	-3%	-3.8	0.69
O=C(NCc1ccc(F)cc1)c1ccc(CS(=O)(=O)Cc2ccc(F)cc2)o1	-0.2	0.1	-7	5.3	2%	-1.0	0.61
CCCNC(=O)CCc1nnc2ccc(N3CCC(C)CC3)nn12	-3.0	0.9	-20	2.4	-2%	-3.7	0.63
